Compound activity deposited in PubChem by National Center for Advancing Translational Sciences (NCATS).
D2 agonist: agonists of human D2 dopamine receptor (beta-arrestin); P14416; DiscoveRx PathHunter D2 beta-arrestin, luminescence, 90 min; 100% = 57 uM dopamine signal; activation, % (no concentration beside the values); 0.084% of 360,000 active; in the data active = activation above about 40%; inconclusive = about 15% to 40%; inactive = below about 15%; note: compound concentration not given in the record; the text of the record calls up to 30% inactive
Target sequence (P14416 whole entry, looked up): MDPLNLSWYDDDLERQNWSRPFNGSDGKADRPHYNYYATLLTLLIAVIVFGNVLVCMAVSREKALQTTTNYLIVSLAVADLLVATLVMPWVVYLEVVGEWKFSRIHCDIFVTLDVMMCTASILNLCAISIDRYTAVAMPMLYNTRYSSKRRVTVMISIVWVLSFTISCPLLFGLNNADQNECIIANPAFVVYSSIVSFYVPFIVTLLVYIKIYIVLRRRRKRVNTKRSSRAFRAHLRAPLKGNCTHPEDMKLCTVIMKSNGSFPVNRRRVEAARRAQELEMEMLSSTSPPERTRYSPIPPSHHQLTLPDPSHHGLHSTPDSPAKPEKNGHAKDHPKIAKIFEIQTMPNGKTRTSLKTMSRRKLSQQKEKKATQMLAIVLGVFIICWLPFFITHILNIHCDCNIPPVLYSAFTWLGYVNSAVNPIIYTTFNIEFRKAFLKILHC
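Agonist mode: compounds alone added to overnight-plated D2 PathHunter cells for 90 min at 37 C, with 57 uM final dopamine (EC100) defining full response. Beta-arrestin recruitment detected by chemiluminescent reagent, read after 1 h at ambient temperature.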
Six1-Eya2 inh: inhibitors of human Six1/Eya2 interaction | AID 651725 | Q15475+O00167 | AlphaScreen GST-Six1/His-Eya2 binding, biochemical; active compounds read low; control for the full effect not named in the record | activity change, % (no concentration beside the values) | 0.56% of 360,000 active; in the data active = activity change below about -65%; inconclusive = about -30% to -65%; inactive = above about -30%; note: % is set by controls: 0 for no effect and ±100 for the full control effect
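AlphaScreen with GST-Six1 and His-Eya2 (5X mix: 250 nM and 500 nM), glutathione donor and nickel acceptor beads; buffer 50 mM Tris pH 8.0, 300 mM NaCl, 1 mM TCEP; 1 h at 37 C in the dark.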
TRPV1 PAM: potentiators of human vanilloid receptor 1 (TRPV1); 0.02% of 320,000 active; TRPV1-expressing cells, Fluo-8 calcium influx, capsaicin EC20 potentiation; host cell line not named in the record; control for the full effect not named in the record; potentiation, % at 8.33 µM; Q8NER1; active means potentiation above 80%; inconclusive means 30% to 80%; inactive means below 30%; note: 0% is about no effect
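Fluo-8 calcium influx in TRPV1-expressing cells, kinetic read (ex 480/em 520 nm). Compound added and read 3 min for agonist activity, followed by capsaicin at EC20 final and 2 min further read for enhancement.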
D2 PAM: human D2 receptor positive allosteric modulation. P14416. DiscoveRx D2 beta-arrestin cells, luminescence, 90 min; 100% = 57 uM dopamine signal. potentiation, % (no concentration beside the values). 0.23% of 360,000 active. AID 624464; active = potentiation of 50% or more; inconclusive = 30% to 50%; inactive = 30% or less;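 note: compound concentration not given in the record; tested on top of an EC20 dose of dopamine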
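D2 cells co-treated with compound plus 50 nM dopamine (EC20) for 90 min at 37 deg C to detect potentiation. Beta-arrestin recruitment was read as enzyme-fragment luminescence after 1 h at ambient temperature. Full response was set by 57 uM dopamine.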
CtBP-E1A blk: inhibitors of CtBP/E1A interaction | AlphaScreen GST-E1A/His-CtBP binding, 1536-well; active compounds read low; control for the full effect not named in the record | activity change, % (no concentration beside the values) | 0.49% of 340,000 active; in the data active means activity change below about -65%; inconclusive means about -30% to -65%; inactive means above about -30%; note: % is set by controls: 0 for no effect and ±100 for the full control effect
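In 5 uL wells, 23 nL compound meets equimolar GST-E1A and His-CtBP (5X stock 125 nM each) for 2 h, 37 °C. Beads (5X, 50 ug/mL) then 1 h, 37 °C, dark.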
PINK1 expr mod: PINK1 expression modulation; PINK1 immunofluorescence, high-content cytometry, 24 h; Potency, µM (top dose mostly 76.6 µM), for the others: at the highest dose activation (PINK1 increase), hits mostly activators; 0.2% of 410,000 active; AID 624263; active = well fitted activation curve with a large enough effect; inconclusive = small, poorly fitted or top-dose-only effect; inactive = flat fitted curve, though single readings scatter; cell line not stated here;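 note: potency is the fitted concentration of half-maximal effect; % of control where 0% means no effect; nearly all actives have a fitted effect of over 65% in size; a mitochondrial uncoupler was the plate control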
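Fluorescence from anti-PINK1 antibody, together with nuclear and cell stains, was scanned on a laser-scanning cytometer. Before staining, stable-line cells were incubated 24 hours with compounds at 5 concentrations; primary antibody 12 h at 10 degrees C.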
Sfp PPTase inh: blocks B. subtilis Sfp PPTase activity; 3.5% of 310,000 active; Biochemical Sfp PPTase activity, qHTS; AID 1490; Potency, µM, for the others: max response, negative = inhibition, usual class: inhibitors; active = well fitted inhibition curve with a large enough effect; inconclusive = small, poorly fitted or top-dose-only effect, or another doubt; inactive = no such curve, though single readings can be large or run the other way;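 note: the enzyme is Sfp with the accession as filed and its product quenches rhodamine fluorescence; potency is the fitted concentration of half-maximal effect; 0% = enzyme reaction without inhibitor and -100% = no enzyme wells; top concentration of the series not given in the record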
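Buffer: 50 mM Hepes-Na pH 7.6, 10 mM MgCl2, 0.01% Nonidet P-40, 0.01% BSA. Enzyme 15 nM, pre-exposed to compound 15 min; substrates then added and fluorescence change tracked over 30 min.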
Numbers without * were called inactive; ? = inconclusive; / = not tested or not shown; [ ] = another dose, or the depositor's remark.

SMILES | D2 agonist | Six1-Eya2 inh | TRPV1 PAM | D2 PAM | CtBP-E1A blk | PINK1 expr mod | Sfp PPTase inh
Clc1ccc(-c2nc3ccccn3c2CN2CCSCC2)cc1 | -6.2 | -8 | -9 | -3 | -8 | 2.1% | -21%
O=C(c1ccc([N+](=O)[O-])s1)N1CCN(c2cccc(Cl)c2)CC1 | 5.7 | -12 | -8 | 10 | 14 | ? | -6%
COc1ccc(-c2ccc3c(c2)S(=O)(=O)c2cccc(C(=O)NCc4ccccc4Cl)c2C3=O)cc1OC | 0.3 | -6 | -4 | -6 | 2 | 3.6% | /
N#C/C(=C\c1ccc(N2CCOCC2)o1)C(=O)NCC1CCCO1 (centres undefined) | -2.6 | -8 | 3 | -18 | -2 | 0.9% | -1%
CS(=O)(=O)N(CC(=O)NCCSCc1ccccc1Cl)c1ccccc1F | 2.9 | -3 | -3 | -1 | / | 0.7% | -1%
NNC(=O)c1nc(-c2ccccc2)cc(-c2ccccc2)n1 | -6.6 | -7 | 6 | 3 | 0 | 1.2% | 1%
O=[N+]([O-])c1ccc(N2CCCC2)cc1NCc1ccccc1 | -4.3 | -23 | 3 | -2 | -12 | 2.5% | -8%
c1ccc(-c2nn[nH]n2)cc1 | -0.9 | 4 | -2 | -3 | 10 | 6.4% | 19%
CCCC(=O)N/N=C1\CS(=O)(=O)N(C)c2ccsc21 | 1.0 | -8 | -7 | -2 | -4 | -1.0% | 1%
CCCCCCCNC(=O)C1(CC2CC(c3cccc(Br)c3)=NO2)CCN(C(=O)Cc2ccc(F)cc2)CC1 (centres undefined) | -0.9 | -13 | -30 | -10 | / | 2.0% | /

Reprinted at random: four records from the list
SMILES | D2 agonist | Six1-Eya2 inh | TRPV1 PAM | D2 PAM | CtBP-E1A blk | PINK1 expr mod | Sfp PPTase inh
CS(=O)(=O)N(CC(=O)NCCSCc1ccccc1Cl)c1ccccc1F | 2.9 | -3 | -3 | -1 | / | 0.7% | -1%
c1ccc(-c2nn[nH]n2)cc1 | -0.9 | 4 | -2 | -3 | 10 | 6.4% | 19%
O=C(c1ccc([N+](=O)[O-])s1)N1CCN(c2cccc(Cl)c2)CC1 | 5.7 | -12 | -8 | 10 | 14 | ? | -6%
Clc1ccc(-c2nc3ccccn3c2CN2CCSCC2)cc1 | -6.2 | -8 | -9 | -3 | -8 | 2.1% | -21%

Additional structures:
SMILES | D2 agonist | Six1-Eya2 inh | TRPV1 PAM | D2 PAM | CtBP-E1A blk | PINK1 expr mod | Sfp PPTase inh
NC(=O)CC(NC(=O)Cc1cccc2ccccc12)c1ccc(N2CCC(N3CCCCC3)CC2)c([N+](=O)[O-])c1 (centres undefined) | -0.9 | -4 | 2 | -18 | -1 | 2.5% | 3%
CCCCCCS(=O)Cc1ccccc1 (centres undefined) | -3.2 | 3 | 14 | -5 | 0 | -0.7% | 1%
Cc1ccnc(Cc2ccccc2)n1 | 0.7 | 14 | -8 | 3 | 3 | 1.7% | 1%
CCOC(OCC)P(=O)(c1ccccc1)c1ccccc1 | -0.4 | 2 | -25 | 10 | 5 | 4.5% | 11%
O=C(c1cccs1)N1CCN(C(=O)c2ccco2)c2ccccc2C1 | 0.5 | -1 | -15 | -5 | 3 | 1.4% | 21%
COc1ccc(C(=O)/C=C/c2ccccc2)c(OC)c1 | -3.2 | 2 | 14 | 2 | 3 | -0.8% | -1%
Cc1ccc(Cn2nnc3c(=O)n(CC(=O)OCc4ccccc4)cnc32)cc1 | -2.8 | -4 | 21 | -6 | 11 | 0.3% | -3%
CN1CCN(c2nc(Nc3ccccc3)nc(N)c2[N+](=O)[O-])CC1 | -1.6 | 2 | -16 | -17 | 1 | -0.2% | 1%
Cc1cccc(C)c1NC(=O)C(c1ccccc1)N1CCN(C(=O)c2ccco2)CC1 (centres undefined) | 1.7 | 7 | 10 | -10 | 9 | 2.1% | -6%
CC(C)NC(=O)CN1C(=O)C(=O)c2ccccc21 | -7.2 | 0 | ? | -22 | -3 | -1.2%[38.3 µM] | 11%
CCCCCC(=O)N1C[C@H](n2cc(C3CC3)nn2)[C@@H](O)C[C@@H]1c1ccc(Cl)cc1 | -11 | 0 | / | -4 | -4 | 0.0% | /
CCc1cccc(CC)c1-n1c(SCC(=O)N2CCc3ccccc3C2)nnc1-c1cccnc1 | -2.7 | -17 | -5 | -24 | -9 | 9.2% | -17%
COCc1cc(=O)[nH]c(/N=C(\N)Nc2ccccc2C)n1 | -0.2 | -1 | -5 | -2 | -1 | 2.0% | -12%
N#CC1=C(N)Oc2c(ccc3cccnc23)C1c1cccnc1 (centres undefined) | -5.7 | -91* | 29 | -17 | -92* | 23% | -1%
CCC(C)[C@H](NC(=O)Nc1cccc(Br)c1)C(=O)OC (some centres undefined) | -3.4 | 10 | -15 | -8 | 5 | 1.6% | 4%
O=C(C1=NN(c2ccccc2)C2C(=O)N(c3ccccc3Cl)C(=O)C12)c1ccccc1 (centres undefined) | 0.2 | 36 | -24 | -6 | 0 | 2.4% | 15%
COc1ccc(NC(=O)Nc2ccc3c(c2)C(=O)N([C@H](C)CO)C[C@H](C)[C@@H](CN(C)C(=O)NC2CCCCC2)O3)cc1 | 0.3 | 0 | / | / | 0 | 1.6% | /
COc1cc(NS(=O)(=O)c2ccc(F)cc2)c(OC)cc1NC(C)=O | 1.2 | -1 | -15 | 9 | -2 | -0.7% | 18%
COc1ccc(/C=N/NC(=O)c2ccn[nH]2)cc1CN1CCOCC1 | -2.3 | 8 | 6 | 1 | -5 | 0.6% | 27%
CC(C)N(Cc1nc(-c2ccccc2)no1)C(=O)CN1C(=O)c2ccccc2C1=O | 5.5 | 1 | 3 | 5 | 1 | 6.5%[38.3 µM] | 5%
Cc1ccc(-c2ccc(OC(=O)c3ccc(=O)[nH]c3)c(C)c2)cc1 | 4.2 | -5 | 13 | -5 | 3 | 1.1% | 12%
CCCS(=O)(=O)NC(=O)C1(C)CCCN(C(=O)c2cc(C(C)(C)C)nn2C)C1 (centres undefined) | -3.9 | 14 | / | -5 | 11 | 1.0% | /
CCOC(=O)Cn1nnc(-c2cccc(OC)c2)n1 | -1.0 | 7 | -2 | 3 | 7 | 3.7%[38.3 µM] | 13%
CNC(=O)c1cc(S(=O)(=O)NC2CCCCCC2)ccc1C | 4.1 | -1 | -1 | -4 | 7 | 1.0% | 0%
C=CCOc1ccccc1/C=C/C(=O)O | -4.9 | -2 | 5 | -12 | 3 | 1.0% | 8%
O=C(COc1ccc(S(=O)(=O)NC2CCCCC2)cc1)N1CCN(c2ccc(F)cc2)CC1 | 0.7 | -12 | / | 0 | 2 | -0.5% | -16%
COc1ccc(C)cc1CN1C(=O)c2ccccc2C1=O | -4.2 | 10 | 12 | 0 | 10 | 4.2% | 2%
COc1ccc(NC(=O)CN(C)CC(=O)Nc2cccc(C(C)=O)c2)cc1 | -5.2 | 9 | ? | -6 | 5 | 2.2% | ?
CCOc1ccc(S(=O)(=O)Nc2cc(NS(=O)(=O)c3ccc(OCC)cc3)cc(C(=O)O)c2)cc1 | 0.2 | -7 | / | -10 | / | 4.0% | /
COc1ccc(C(=O)OCC(=O)Nc2c(C)n(C)n(-c3ccccc3)c2=O)cc1 | -1.8 | -2 | / | -3 | 4 | 0.1% | /
Cc1c(C#N)c2ccccc2n1C | -1.6 | 4 | 2 | 0 | 11 | -1.7% | 2%
O=C(Cc1c[nH]c2ccccc12)NNC(=O)c1ccccc1 | 0.0 | 6 | -2 | -10 | 6 | 0.0% | 6%
CCOc1ccc(N(C(=O)CNC(=O)c2ccco2)C(C(=O)NC2CCCC2)c2ccncc2)cc1 (centres undefined) | -1.0 | -1 | -1 | -3 | -2 | -0.9% | 13%
O=C(Cc1ccccc1)N1CCN=C1SCc1cccc([N+](=O)[O-])c1 | -10 | 4 | 7 | 2 | 1 | 0.0% | 13%
Cc1ccc(C(=O)N(c2ccccn2)C(C)c2ccco2)cc1 (centres undefined) | -2.7 | 8 | 7 | 3 | -1 | -0.8% | 12%
Cc1ccc(-c2c3c(=O)n(C)c(=O)n(C)c3cn2Cc2ccccc2)cc1 | 0.6 | -3 | 3 | 16 | -1 | -1.3% | -13%
O=Cc1ccccc1-c1cn(CN2C(=O)c3ccccc3C2=O)nn1 | -2.2 | 10 | 16 | -10 | / | 0.4% | 10%
O=C(c1ccco1)N1CCN(Cc2nnnn2C2CCCCC2)CC1 | -5.0 | -9 | 4 | -10 | -1 | 4.5% | 11%
O=S(c1cc(Cl)cc(Cl)c1O)c1cc(Cl)cc(Cl)c1O | / | -92* | / | / | -24 | ? | -16%
Oc1ccc(C(c2nnnn2C2CCCCC2)N2CCOCC2)cc1 (centres undefined) | -2.4 | -10 | -3 | -1 | 0 | 2.1% | ?
Cc1cccc(NC(=O)NNC(=O)c2nn(C)cc2Br)c1 | 2.2 | 8 | -1 | 11 | -2 | 3.4% | 12%
CC(C)N1CC23C=CC(O2)C(C(=O)OCc2ccccc2)C3C1=O (centres undefined) | -1.2 | 4 | 8 | -5 | 0 | -3.6% | 13%
Fc1ccc(-n2c(-c3ccc4c(c3)OCO4)n[nH]c2=S)cc1Cl | 0.6 | 3 | 3 | 4 | 4 | -0.2% | -9%
c1ccc(-c2nc(N3CCNCC3)nc3ccccc23)cc1 | -3.7 | 14 | -2 | -31 | 6 | 0.1% | 7%
COc1cccc(CNC(=O)c2cc(S(=O)(=O)N3CCOCC3)cn2C)c1 | -0.9 | 10 | 5 | -2 | -17 | 0.1% | 3%
Cn1ncc(Cl)c1C(=O)Nc1nnc(C2CC2)s1 | -2.5 | 8 | -1 | -11 | 2 | -0.4% | 5%
CCOC(=O)C1(CCOc2ccccc2)CCN(Cc2cc(OC)c(O)cc2Cl)CC1 | -6.8 | -13 | -11 | -29 | -15 | 8.1% | 10%
Cc1ccccc1NC(=O)COc1ccc2c(c1)OC(C)(C)CC2=O | -0.5 | 5 | -5 | -15 | / | 2.3% | -1%
COCCCN(C(=S)NC(=O)C12CC3CC(CC(C3)C1)C2)c1c(N)n(Cc2ccccc2)c(=O)[nH]c1=O | -2.8 | 0 | 6 | -4 | 2 | 0.5% | 17%
O=C(CCCc1nc(-c2ccc(Cl)cc2)no1)NC1CCCC1 | 1.5 | -1 | 1 | -9 | 5 | 0.2% | 13%
O=C(CSc1n[nH]c(-c2ccccc2)n1)c1ccc(O)c(O)c1 | 2.6 | -5 | 9 | 6 | -10 | 12%[38.3 µM] | -14%
